Screening results as filed in PubChem BioAssay.
Calb FLC – affects C. albicans growth with fluconazole; 0.57% of 300,000 active; AID 1979; growth inhibition, % (concentration not given with the values); C. albicans CaCi-2 (fluconazole-resistant clinical isolate) + fluconazole, Alamar Blue growth, 48 h;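 active = most replicates above 75%; inconclusive = exactly half above 75%; inactive = most below 75%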;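 also: all wells also contain fluconazole at 8 µg/ml as a sub-toxic cotreatment; 0% = median of DMSO wells and 100% = median of geldanamycin control wells; wells of about 8 µL received 7.5 nL stock; the first replicate is given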
B2AR ag – activates human beta-2 adrenergic receptor causing internalization. Am2.2-beta2AR cells, FAP receptor internalization, flow cytometry; reference of the scale not given here. response, % (test concentration not listed). 0.43% of 340,000 active. AID 504454;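 active = response above a set limit, near 3 SD of response in nonfluorescent compounds, cut at about 42% in these data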;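 also: stock transfer was 100 nL into about 11 µL; a reference agonist was the positive control; negative values mostly stem from fluorescent compounds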
Target sequence (P07550 whole entry, looked up): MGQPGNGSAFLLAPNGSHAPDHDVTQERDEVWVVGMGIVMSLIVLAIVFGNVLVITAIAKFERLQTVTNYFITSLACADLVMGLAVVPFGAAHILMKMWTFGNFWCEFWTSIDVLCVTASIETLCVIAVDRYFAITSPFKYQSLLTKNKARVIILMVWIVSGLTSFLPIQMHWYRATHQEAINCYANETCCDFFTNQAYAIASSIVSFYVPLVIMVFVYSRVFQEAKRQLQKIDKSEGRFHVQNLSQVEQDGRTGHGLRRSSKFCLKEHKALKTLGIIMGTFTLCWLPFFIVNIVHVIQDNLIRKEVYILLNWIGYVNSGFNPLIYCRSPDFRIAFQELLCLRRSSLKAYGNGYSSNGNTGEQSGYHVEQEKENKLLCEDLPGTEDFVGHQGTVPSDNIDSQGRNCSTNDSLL
HNF4A DNA FP – change in binding of human HNF4 alpha to DNA; P41235; HNF4a-FITC DNA binding, fluorescence polarization, 1 h; activity change, % at 10 µM; 0.3% of 360,000 active; in the data active = activity change above about 30%, passing the limit was not always enough;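 also: controls were the assay level and a saturating level of protein; the project sought stronger binding though the title names inhibitors; some compounds called inactive have numbers as strong as hits; positive values seem to mean higher polarization but the record does not say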
Target sequence (P41235 whole entry, looked up): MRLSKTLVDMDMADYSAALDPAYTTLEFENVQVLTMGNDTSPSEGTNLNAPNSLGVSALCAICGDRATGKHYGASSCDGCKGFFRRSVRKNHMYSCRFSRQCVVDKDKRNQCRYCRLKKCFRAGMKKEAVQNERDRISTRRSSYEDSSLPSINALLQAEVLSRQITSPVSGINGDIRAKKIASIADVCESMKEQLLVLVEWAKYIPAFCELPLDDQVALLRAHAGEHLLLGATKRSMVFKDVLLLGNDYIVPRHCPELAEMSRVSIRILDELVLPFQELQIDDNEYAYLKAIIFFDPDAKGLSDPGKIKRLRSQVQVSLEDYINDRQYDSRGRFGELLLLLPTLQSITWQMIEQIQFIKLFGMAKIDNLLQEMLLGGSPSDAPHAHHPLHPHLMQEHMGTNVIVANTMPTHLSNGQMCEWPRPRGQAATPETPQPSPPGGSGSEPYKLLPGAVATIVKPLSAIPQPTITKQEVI
LANA-H2B inh – blocks KSHV LANA binding to histone H2A/H2B. Q9QR71. cell-free LANA-H2A/H2B peptide, fluorescence polarization. inhibition, % (concentration not given with the values). 0.6% of 320,000 active. AID 2629; in the data active = inhibition mostly above about 10%, no sharp cut-off; inactive = mostly below about 6.7%;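 also: stock transfer was 7.5 nL into about 10 µL; 0% = median of vehicle wells and 100% = median of positive control wells; one replicate is shown; the record names a cut of 25% in any replicate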
RanGTP-Impb inh – inhibitors of RanGTP-importin-beta interaction, primary screen, biochemical, FRET, CFP-Ran, YFP-importin-beta, homogeneous | cell-free CFP-Ran/YFP-importin-beta FRET ratio | inhibition, % (test concentration not listed) | 1.1% of 300,000 active | AID 2216;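 active = most replicates above 15%; inconclusive = exactly half above 15%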;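 also: 0% = DMSO wells and 100% = Ran loaded with GDP instead of GTP; wells of about 40 µL received 100 nL stock; the first replicate is given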
Vif A3G – inhibitors of Vif binding to APOBEC3G peptide, primary screen, biochemical, TR-FRET, GST-Vif 1-94, biotin-A3G peptide, dose response retest (AID 1117319); 0.57% of 260,000 active; inhibition, %; hits with a dose series show IC50 in µM; TR-FRET GST-Vif / biotin-A3G peptide binding; higher % means a stronger effect; test concentration not given here; strong numbers were not always called active;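 active = above the screen mean plus three standard deviations and confirmed in dose response; inconclusive = results disagree or hit not tested in dose response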;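 also: Vif residues 1-94 fused to GST binding biotinylated APOBEC3G peptide 110-148; 0% = full assay without inhibitor and 100% = GST in place of GST-Vif; retest series ran down from 100 µM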
ALR inh – human ALR oxidase inhibition via reduced H2O2; P55789; purified ALR, DTT oxidation, H2O2 HRP-luminol luminescence; inhibition, % (test concentration not listed); 3.8% of 290,000 active; AID 485317;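 active = mean and each replicate at 75% or more; inconclusive = only one of the two met; inactive = neither met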;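 also: stock transfer was 7.5 nL into about 7.5 µL; 0% = neutral wells and 100% = wells with inactivated enzyme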
Target sequence (P55789 whole entry, looked up): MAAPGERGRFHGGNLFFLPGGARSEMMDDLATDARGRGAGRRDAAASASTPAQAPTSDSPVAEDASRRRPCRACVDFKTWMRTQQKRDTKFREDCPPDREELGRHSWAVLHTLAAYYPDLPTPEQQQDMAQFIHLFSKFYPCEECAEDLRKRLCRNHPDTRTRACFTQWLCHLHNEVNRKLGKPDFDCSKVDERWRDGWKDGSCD
Numbers without * were called inactive; u = inconclusive; x = no result given; & = joins results of further samples. Outcome played no part in choosing rows (roughly 6.3% active in at least one column).

SMILES	Calb FLC	B2AR ag	HNF4A DNA FP	LANA-H2B inh	RanGTP-Impb inh	Vif A3G	ALR inh
COc1ccc(N2C(=O)CCC2(C(N)=O)c2ccccc2)cc1 (centres undefined)	-4	-5	-1.7	4.4	-0.2	x	0
Cc1c(C(=O)N(C)C(C)c2ccccn2)oc2c(F)cccc12 (centres undefined)	1	-4	-2.3	-2.4	3.7	x	2
CC(Oc1ccccc1)C(=O)NC1CCSc2ccccc21 (centres undefined)	x	0	-1.1	-1.6	x	5%	1
CC(=O)N/C(=N\OCc1ccccc1Cl)c1nonc1NC(C)=O	-9	4	-1.2	5.9	-0.2	x	-7
CC(=O)C1C(c2ccc(Cl)cc2)c2c(n[nH]c2C)CC1(C)O (centres undefined)	10	8	-1.2	0.9	-4.4	5%	-4
Cc1ccc(NC(=O)CC2CS(=O)(=O)CC2CC(=O)Nc2ccc(C)c(C)c2)cc1C (centres undefined)	7	0	1.3	2.1	-0.2	-5%	6
CCc1cccc2c(C(=O)C(NCCOC)c3ccccc3)c[nH]c12 (centres undefined)	2	-1	1.7	-3.7	-1.5	-3%	-1
Cc1ccc(OC(=O)CCN2C(=O)c3ccccc3C2=O)cc1C	16	-1	-0.2	3.8	3.2	3%	20
COC(=O)c1ccc(NC(=O)c2cccnc2)cc1	-3	6	-4.1	7.8	-1.5	-2%	0
O=C(Nc1cccnc1)c1cccc(S(=O)(=O)Nc2cccc(Cl)c2)c1	x	1	-1.3	-0.7	x	-6%	-2
COC(=O)c1nc(Cl)c(Cl)c(N)c1Cl	-7	1	-4.7	3.9	0.9	6%	-4
CC1(C)Cc2c(C#N)c(N3CCOCC3)nc(Cc3ccccc3)c2CO1	-11	5	3.3	4.7	7.3	-1%	-9
N#CCc1nn2c(-c3ccccc3)ccnc2c1C#N	3	-3	1.8	-0.8	3.8	-6%	-2
Cc1ccc(N=C2S/C(=C\c3cn(CC(=O)O)c4ccccc34)C(=O)N2C)cc1	52	1	5.5	-4.6	-7.1	4%	x
Cc1c(O)nc(SC2CC(=O)N(c3cc(Cl)cc(Cl)c3)C2=O)[nH]c1=O (centres undefined)	1	3	1.5	-0.3	-0.8	x	-2
NC(=S)Nc1cccc(Cl)c1	-7	3	-4.3	2.0	0.2	u	-10
CO/N=C\c1cc(C(=O)c2ccc(Cl)cc2Cl)cn1C	11	-10	10	-0.7	32*	x	1
O=C(Nc1ccc(F)cc1F)Nc1sccc1-c1nc2ccccc2s1	-5	12	11	5.2	3.4	-6%	66
CC(C)N(Cc1ccccc1)C(=S)Nc1ccccc1F	-3	9	3.4	-5.8	1.0	28%	x
COc1ccc(N(CC(=O)N/N=C/c2ccccc2OC)S(=O)(=O)c2ccccc2)cc1	-2	16	-0.4	2.9	u	-8%	-4

Some of the entries above in another layout:
| SMILES | Calb FLC | B2AR ag | HNF4A DNA FP | LANA-H2B inh | RanGTP-Impb inh | Vif A3G | ALR inh |
| --- | --- | --- | --- | --- | --- | --- | --- |
| COC(=O)c1ccc(NC(=O)c2cccnc2)cc1 | -3 | 6 | -4.1 | 7.8 | -1.5 | -2% | 0 |
| CC(=O)N/C(=N\OCc1ccccc1Cl)c1nonc1NC(C)=O | -9 | 4 | -1.2 | 5.9 | -0.2 | x | -7 |
| Cc1ccc(N=C2S/C(=C\c3cn(CC(=O)O)c4ccccc34)C(=O)N2C)cc1 | 52 | 1 | 5.5 | -4.6 | -7.1 | 4% | x |

Seven compounds already listed, sorted by length of the SMILES, ascending:
SMILES	Calb FLC	B2AR ag	HNF4A DNA FP	LANA-H2B inh	RanGTP-Impb inh	Vif A3G	ALR inh
COC(=O)c1ccc(NC(=O)c2cccnc2)cc1	-3	6	-4.1	7.8	-1.5	-2%	0
CC(Oc1ccccc1)C(=O)NC1CCSc2ccccc21 (centres undefined)	x	0	-1.1	-1.6	x	5%	1
CO/N=C\c1cc(C(=O)c2ccc(Cl)cc2Cl)cn1C	11	-10	10	-0.7	32*	x	1
COc1ccc(N2C(=O)CCC2(C(N)=O)c2ccccc2)cc1 (centres undefined)	-4	-5	-1.7	4.4	-0.2	x	0
Cc1c(C(=O)N(C)C(C)c2ccccn2)oc2c(F)cccc12 (centres undefined)	1	-4	-2.3	-2.4	3.7	x	2
CCc1cccc2c(C(=O)C(NCCOC)c3ccccc3)c[nH]c12 (centres undefined)	2	-1	1.7	-3.7	-1.5	-3%	-1
O=C(Nc1cccnc1)c1cccc(S(=O)(=O)Nc2cccc(Cl)c2)c1	x	1	-1.3	-0.7	x	-6%	-2

Additional entries:
SMILES	Calb FLC	B2AR ag	HNF4A DNA FP	LANA-H2B inh	RanGTP-Impb inh	Vif A3G	ALR inh
Cc1nnc(SCC(=O)NNC(=O)c2ccco2)n1-c1ccccc1	3	-2	0.6	3.8	0.2	6%	1
Cc1cccc(OCC(=O)N/N=C\C=C\c2ccc3c(c2)OCO3)c1C	-1	-1	-2.6	-1.7	0.3	0%	-1
O=c1cc(CCl)nc(Cc2c(Cl)cccc2Cl)[nH]1	0	3	0.6	3.3	-1.3	x	0
CCOC(=O)CC1C(=O)NCCN1S(=O)(=O)c1ccc(Cl)cc1Cl (centres undefined)	-10	-9	-5.0	-0.5	5.4	u	x
Cc1ccc(NC2=C(NCCO)C(=O)c3ccccc3C2=O)cc1	1	1	-0.3	-4.0	0.8	7%	100*
N#Cc1cc2c(nc1SCc1cccnc1)CCC2	25	-13	-0.1	-5.0	1.2	1%	16
CCc1c(O)nc(SCc2ccc(F)cc2)[nH]c1=O	-7	1	0.0	10	1.4	x	x
N/C(=N\OC(=O)c1cccs1)C1(c2ccc(Cl)cc2Cl)CC1	-15	2	-0.6	-2.6	1.5	8%	-2
O=C1CC(c2ccccc2F)c2c(c3ccccc3[nH]c2=O)O1 (centres undefined)	-6	5	0.8	-1.2	1.0	7%	-2
CSCCC(=O)Nc1ccc(C(C)=O)cc1	-10	-5	0.8	-7.0	-2.7	22%	-2
CC[N+](CC)(CC)CC(=O)Nc1c(C)cccc1C	x	-7	-0.3	-7.3	-1.7	x	-15
CC1=CC(C)C2COC(c3ccc[n+](C)c3)C1C2C (centres undefined)	25	5	-4.7	-3.3	0.3	-2%	1
Cc1ccc(C)c(NC(=O)CN2C(=O)NC(CCc3ccccc3)C2=O)c1 (centres undefined)	x	-4	2.8	4.1	x	-8%	-3
CCOc1ccc(CN(C(=O)/C=C/c2ccco2)C2CCS(=O)(=O)C2)cc1 (centres undefined)	13	1	2.7	3.9	-0.9	13%	1
COc1ccc(S(=O)(=O)Nc2cc([N+](=O)[O-])ccc2OC)cc1	30	4	-2.3	-6.0	0.3	x	1
CCN(CC)C(=O)CSc1nnc([C@H](CCSC)NC(=O)OC(C)(C)C)o1	-5	5	-0.3	2.1	x	1%	-6
O=C(COc1ccc([N+](=O)[O-])cc1)NC(C(=O)O)C(O)c1cccc([N+](=O)[O-])c1 (centres undefined)	-6	-10	7.7	-3.1	2.0	70%	3
COc1ccccc1CNC(=O)COC(=O)C1=COCCO1	-1	-4	0.0	3.7	8.0	16%	-2
O=C(NCCCN1CCCC1)c1ccc2c(Cl)c3c(nc2c1)CCCC3	19	6	0.8	2.2	-14	-2%	94*
Cc1c(C)n2c(SCC(=O)N3CCCC3)nnc2[nH]c1=O	-5	2	-1.0	-4.6	-0.1	x	-5
CC(C)C(=O)Nc1ccc(NC(=O)c2ccco2)cn1	1	-8	-0.3	-1.4	6.8	u	-14
O=C(Nc1ccccc1)Nc1ncc([N+](=O)[O-])s1	u	18	1.8	x	-5.9	x	x
NC(=O)CC(NC(=O)Cc1cccc2ccccc12)c1ccc(N2CCN(c3ccccn3)CC2)c([N+](=O)[O-])c1 (centres undefined)	0	-13	-1.2	-6.0	1.7	x	-4
COc1cc(/C=C/CN2CCC(CO)(CC3CCCCO3)CC2)ccc1O (centres undefined)	-8	-1	0.7	2.9	-0.5	11%	92*
COc1ccc(OC)c(C2N(c3ccc(Cl)cc3)C(=O)C3CCCN32)c1 (centres undefined)	-15	-4	7.5	-5.0	-3.2	26%	-10
CCOC(=O)C1CCCN(S(=O)(=O)c2cccc3nsnc23)C1 (centres undefined)	-5	0	3.5	-0.1	-1.2	x	-3
Cc1csc(C(C)N(C)C(=O)CCc2nnc(CCc3ccccc3)o2)n1 (centres undefined)	-1	-3	3.8	-1.4	1.2	0%	-18
C[C@@H]1CN([C@@H](C)CO)C(=O)c2cc(NC(=O)Nc3ccc(F)cc3)ccc2O[C@@H]1CN(C)Cc1ccc(Oc2ccccc2)cc1	x	13	-1.0	4.0	x	x	-3
COc1ccc(C(=O)Nc2ccc(S(=O)(=O)Nc3onc(C)c3C)cc2)cc1	15	-6	-3.7	-1.9	27*	16%&1%	-6
Cc1cc(N=NC(=O)c2ccccc2)ccc1O	x	0	2.5	-0.9	x	21%	-2
Cc1ccc(NC(=O)c2cc(C)no2)cc1	0	8	0.7	-0.7	-2.7	4%	-3
CCCC(=O)Nc1c2c(nn1-c1cccc(C)c1C)CS(=O)(=O)C2	-4	-10	-0.7	3.6	-5.5	-6%	5
Cc1[nH]n2c(=O)cc(C(C)C)nc2c1-c1ccccc1	18	1	3.3	-3.3	-4.6	-1%	21
O=C(NC12CC3CC(CC(C3)C1)C2)c1ccc(-c2ccccc2Cl)o1	6	-8	-3.1	2.9	-3.2	-7%	x
Cc1noc(NS(=O)(=O)c2ccc(NC(=O)c3cnc4n(c3=O)CCS4)cc2)c1C	-6	-10	-3.3	-3.6	-8.3	3%	99*
CCOC(=O)Cc1csc(NC(=O)CCc2ccc(S(=O)(=O)N3CCOCC3)cc2)n1	-10	1	-0.1	3.3	-4.3	15%&-2%	-1
CCc1ccc(C(=O)/C=C/NCc2ccc(F)cc2)cc1	-25	-2	-2.9	0.6	0.8	x	x
CS(=O)(=O)N(CCc1ccccc1)CC(N)=O	-6	6	-2.1	6.3	3.2	-3%	-6
C=CCNC(=S)N/N=C(\C)c1cccc(NC(C)=O)c1	19	2	0.7	-16	-4.3	1%	37
CCOc1cc(C2C3=C(CCCC3=O)N(CC(=O)O)C3=C2C(=O)CCC3)ccc1OC	18	-2	-4.8	-3.4	-1.3	x	-47
COC(=O)C1CCN(C(=O)c2sc3nc(-c4ccc(F)cc4)cn3c2C)CC1	7	-1	6.2	2.2	x	-6%&6%	-8
CC(C)(C)S(=O)(=O)c1cnc2c(-c3ccc(Cl)cc3)cnn2c1N	-9	-6	1.3	-4.2	-2.2	-1%	-1
O=C(COC(=O)c1cccs1)NC1CCCC1	-2	0	-1.0	-1.4	2.3	x	18
CC1(c2ccc(OC(F)F)cc2)NC(=O)N(CC(=O)Nc2cccc(F)c2)C1=O (centres undefined)	-4	7	-1.7	-5.4	3.4	6%	-7
CCOC(=O)C1C(=O)NC(N2CCN(CC)CC2)=NC1c1ccccc1 (centres undefined)	-6	-1	-4.8	0.7	6.0	0%	-3
COc1cccc(OC)c1C(=O)OCC(=O)NCC(C)C	-6	8	-0.3	0.3	1.5	14%	-7
COc1ccc(C2C(C(C)=O)=C(C)Nc3ncnn32)cc1OC (centres undefined)	4	-7	1.8	3.2	-3.0	-7%	x
CCCNC(=O)c1cc2c(C(F)(F)F)nn(C)c2s1	18	-8	-1.9	3.9	1.7	-3%	x
COc1ccccc1NS(=O)(=O)c1ccc(C(=O)NCCCn2ccnc2)cc1	x	-5	-1.2	-1.1	x	-10%	4
COC(=O)c1ccccc1NC(=O)CSc1nnc(-c2ccc(OC)cc2)n1C	-23	10	-1.3	-0.3	-4.1	16%	-3
Cc1sc2nc(CSCC(=O)Nc3cc(F)ccc3F)[nH]c(=O)c2c1C	x	-3	-0.8	-0.7	x	2%	-8
COc1cccc(-n2c(SCC(=O)Nc3cc(C)on3)nc3ccccc3c2=O)c1	-1	-5	-3.1	-1.1	4.0	-8%	-8
